TRPML1 blocker – inhibitors of human TRPML1 channel | AID 624415 | actives 0.02% (n = 390,000) | Q9GZU1 | activity change, negative = inhibition, % (concentration not given with the values) | TRPML1-inducible cells, Ca2+ dye fluorescence, FDSS; active compounds read low; inhibition of EC80 agonist-evoked calcium signal; in the data active means activity change below about -50%; inconclusive means about -30% to -50%; inactive means above about -30%;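 further: stimulus is agonist 54-4 at its EC80 concentration; on the % scale 0 is the no-effect control and ±100 the full control effect; the text of the record puts the active cut at -80%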
Target sequence (Q9GZU1 whole entry, looked up): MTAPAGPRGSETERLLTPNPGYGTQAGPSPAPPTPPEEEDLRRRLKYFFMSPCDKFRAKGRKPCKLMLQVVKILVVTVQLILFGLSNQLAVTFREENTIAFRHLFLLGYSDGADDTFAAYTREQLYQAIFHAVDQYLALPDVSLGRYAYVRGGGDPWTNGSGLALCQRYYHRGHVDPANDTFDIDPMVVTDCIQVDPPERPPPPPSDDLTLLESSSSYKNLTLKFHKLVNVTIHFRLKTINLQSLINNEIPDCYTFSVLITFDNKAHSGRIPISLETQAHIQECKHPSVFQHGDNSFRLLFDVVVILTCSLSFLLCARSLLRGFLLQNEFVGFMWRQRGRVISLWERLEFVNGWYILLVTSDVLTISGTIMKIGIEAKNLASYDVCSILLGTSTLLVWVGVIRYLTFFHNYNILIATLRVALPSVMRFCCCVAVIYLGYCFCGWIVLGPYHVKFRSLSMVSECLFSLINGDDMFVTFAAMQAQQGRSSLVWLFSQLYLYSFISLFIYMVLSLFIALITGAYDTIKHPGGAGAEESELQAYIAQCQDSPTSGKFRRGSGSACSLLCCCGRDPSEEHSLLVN
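Tet-induced TRPML1-DL cells loaded with Ca8 no-wash calcium dye were read kinetically on FDSS. Compound addition was followed by EC80 agonist 54-4 (4 uM final); inhibition was read over 110 s.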
TRPML1 ag – agonists of human TRPML1 channel; Q9GZU1; TRPML1-expressing cells, Ca2+ dye fluorescence, FDSS; host cell line not named in the record; reference of the full effect not given here; actives 0.12% (n = 410,000); activation, % (no concentration beside the values); AID 624414; in the data active = activation above about 50%; inconclusive = about 30% to 50%; inactive = below about 30%; further: 0% is about no effect; the text of the record puts the active cut at 80%
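Tetracycline-induced TRPML1-DL cells are seeded and incubated overnight before loading with a no-wash Ca2+ dye and quencher. Agonist activity is taken from the 110 s fluorescence read following compound pin-transfer on an FDSS, before EC80 54-4 challenge.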
* = called active by the depositor. Only part of the results is shown. The share of hits here may be higher or lower than overall.

What do the screens show for `COc1ccc(-c2cn3c(n2)sc2cc(C(=O)Nc4ccc(C)c(Cl)c4)ccc23)cc1`?
TRPML1 blocker: 6; TRPML1 ag: -0.2

How did CCn1ccc2cc(S(=O)(=O)N3CCCN(C(=O)Nc4ccc(C)cc4)CC3)ccc21 do in these assays?
TRPML1 blocker: -7; TRPML1 ag: 2.0

How did COc1cc(OC)cc(C(=O)Nc2cc(-c3nc4ccccc4s3)ccc2OC)c1 do in these assays?
TRPML1 blocker: 8; TRPML1 ag: 1.1

What do the screens show for `O=C(c1cc(-c2ccc(Br)cc2)n[nH]1)N1CCN(S(=O)(=O)c2ccc(Cl)s2)CC1`?
TRPML1 blocker: 33; TRPML1 ag: 1.8

How did Cc1cccc(-c2nc(SCC(=O)NCC3CCCO3)c3c(=O)n(C)c(=O)n(C)c3n2)c1 (stereo not given) do in these assays?
TRPML1 blocker: -10; TRPML1 ag: -0.8

Results for CCN(CC)CCNC(=O)c1c2c(nc3ccccc13)C(=O)N(C1CCCCC1)C2 ?
TRPML1 blocker: -15; TRPML1 ag: -0.4

How did COc1cccc(NC(=O)C2CCN(c3nn4cc(-c5ccc(F)cc5)nc4s3)CC2)c1 do in these assays?
TRPML1 blocker: 4; TRPML1 ag: -0.3

Results for O=C(CSc1nc2cc(C(=O)NC3CCCC3)ccc2c(=O)n1CC1CCCO1)c1cccc(Cl)c1 (stereo not given) ?
TRPML1 blocker: 11; TRPML1 ag: 1.2

Results for O=c1c(-c2cc(-c3ccc(Cl)cc3)nc3c2COc2ccccc2-3)coc2ccccc12 ?
TRPML1 blocker: 20; TRPML1 ag: 0.4

How did Cn1c(CCNC(=O)c2ccco2)nc2cc(NC(=O)COc3ccc(Cl)cc3)ccc21 do in these assays?
TRPML1 blocker: -2; TRPML1 ag: 0.7

Results for COc1ccc(NS(=O)(=O)c2ccc3[nH]c4c(c3c2)CCCC4)c(OC)c1 ?
TRPML1 blocker: -4; TRPML1 ag: 0.1

Results for Cc1ccc(-c2cn3c(n2)sc2cc(C(=O)NCCC4=CCCCC4)ccc23)cc1 ?
TRPML1 blocker: 4; TRPML1 ag: -0.1

Results for CCOc1ccccc1CNc1ccc2cc(S(=O)(=O)N3CCC(C)CC3)ccc2n1 ?
TRPML1 blocker: -28; TRPML1 ag: 1.9

What do the screens show for `Cc1ccc(-n2nc(C(=O)Nc3ccc(F)cc3F)c3c4ccccc4n(C)c3c2=O)cc1`?
TRPML1 blocker: -3; TRPML1 ag: 0.8

What do the screens show for `CCOc1ccc(NC(=O)c2sc3nc4c(c(-c5ccc(OC)cc5)c3c2N)C(=O)CC(C)(C)C4)cc1`?
TRPML1 blocker: 6; TRPML1 ag: 2.6

How did COc1cc(NC(=O)c2noc3c2CC(C)CC3)c(OC)cc1Cl (stereo not given) do in these assays?
TRPML1 blocker: 17; TRPML1 ag: 2.5

What do the screens show for `Cc1cc(C)cc(Oc2coc3cc(OCC(=O)NC4CCCCC4)ccc3c2=O)c1`?
TRPML1 blocker: 28; TRPML1 ag: -0.1

Results for Cc1c2cnn(-c3ccccc3)c(=O)c2c(C)n1CC(=O)NCc1ccccc1 ?
TRPML1 blocker: -11; TRPML1 ag: -0.8

How did COc1ccc(NC(=O)CN2CCN(Cc3ccccc3)S2(=O)=O)c(OC)c1 do in these assays?
TRPML1 blocker: -17; TRPML1 ag: 1.0

How did COC(=O)c1ccn(-c2nc(-c3ccc(Cl)cc3)cc(C(F)(F)F)n2)n1 do in these assays?
TRPML1 blocker: 9; TRPML1 ag: 1.0

What do the screens show for `Cc1ccc(-c2nnc(NC(=O)c3ccc4c(c3)OCCO4)o2)c(C)c1`?
TRPML1 blocker: 53; TRPML1 ag: -0.5

What do the screens show for `CCOc1ccccc1NC(=O)CN1C(=O)COc2ccc(S(=O)(=O)NC3CCCC3)cc21`?
TRPML1 blocker: -9; TRPML1 ag: 3.3

What do the screens show for `CC(C)NC(=O)C1CCCN(S(=O)(=O)c2ccc3c(ccn3C)c2)C1` (stereo not given)?
TRPML1 blocker: -20; TRPML1 ag: 0.3

Results for CC(C)(C)c1ccc(C(=O)Nc2ccc3nc(SCC(=O)N4CCCC4)sc3c2)cc1 ?
TRPML1 blocker: -4; TRPML1 ag: 1.7

What do the screens show for `CCOC(=O)c1ccc(NC(=O)c2c(NCc3ccc(OC)c(OC)c3OC)sc3c2CCC(C)C3)cc1` (stereo not given)?
TRPML1 blocker: 0; TRPML1 ag: -0.7

How did O=C(NCc1cccc(Br)c1)c1ccc(NC(=O)N2CCCCc3ccccc32)cc1 do in these assays?
TRPML1 blocker: 17; TRPML1 ag: 2.7

What do the screens show for `COC(=O)c1cc2sc(C)cc2n1Cc1nc(-c2cccc(Br)c2)oc1C`?
TRPML1 blocker: 31; TRPML1 ag: -0.3

What do the screens show for `COc1ccc(-c2cc3c(=O)n(CC(=O)Nc4cc(C)ccc4C)ccn3n2)cc1`?
TRPML1 blocker: inconclusive; TRPML1 ag: 1.5

Results for COc1cccc2cc(-c3nnc(Nc4c(F)cccc4F)s3)c(=O)oc12 ?
TRPML1 blocker: -5; TRPML1 ag: 2.8

Results for O=C(COc1ccccc1F)Nc1ccc(C(=O)OCc2cc(=O)n3nc(C4CC4)sc3n2)cc1 ?
TRPML1 blocker: 11; TRPML1 ag: 0.4

How did CCCCCn1c(CCCNC(=O)c2ccc(Cl)cc2)nc2ccccc21 do in these assays?
TRPML1 blocker: 42; TRPML1 ag: 4.8

How did CC(C)Oc1ccc(CNC(=O)C2CCN(C(=O)N3CCOc4ccc(Cl)cc43)CC2)cc1 do in these assays?
TRPML1 blocker: 19; TRPML1 ag: 1.6

Results for COc1cc(CCC(=O)NCc2ccc3c(c2)CCN3C(=O)c2ccc(F)cc2)cc(OC)c1OC ?
TRPML1 blocker: 1; TRPML1 ag: 1.0

Results for CCCCN1C(C(=O)c2ccccc2)=C(OC(C)=O)c2ccccc2S1(=O)=O ?
TRPML1 blocker: 13; TRPML1 ag: 3.0

How did CCc1ccccc1NC(=O)C(C)n1nc(-c2ccc(C)c(C)c2)ccc1=O (stereo not given) do in these assays?
TRPML1 blocker: -11; TRPML1 ag: 0.0

Results for Cc1ccccc1Cn1c(SCc2ccc(C(=O)NCc3cccs3)cc2)nc2ccncc21 ?
TRPML1 blocker: 10; TRPML1 ag: 2.0

Results for Cn1c(-c2cccc(Br)c2)cnc1NCc1cccc(F)c1 ?
TRPML1 blocker: 4; TRPML1 ag: -1.4

How did COc1ccc(C(C(=O)NCc2ccccc2)N(C(=O)Cn2nnc3ccccc32)c2ccc(OC)cc2)cc1 (stereo not given) do in these assays?
TRPML1 blocker: 37; TRPML1 ag: 4.8

What do the screens show for `CCOc1ccccc1NC(=O)C(=O)NCC(c1cccnc1)N1CCN(c2ccccc2)CC1` (stereo not given)?
TRPML1 blocker: -5; TRPML1 ag: -0.4

Results for O=C(COc1ccc(Cl)cc1)Nc1ccc2nc(SCC(=O)N3CCCC3)sc2c1 ?
TRPML1 blocker: -16; TRPML1 ag: 1.3

Results for COc1ccccc1N(Cc1cc2cccc(C)c2[nH]c1=O)C(=O)c1cccc(Cl)c1 ?
TRPML1 blocker: 4; TRPML1 ag: 4.6

What do the screens show for `Cc1ccc(NC(=O)C(=O)NCC(c2ccc3c(c2)OCO3)N2CCOCC2)cc1C` (stereo not given)?
TRPML1 blocker: -10; TRPML1 ag: -0.7

How did CCNc1nc(NCc2ccc(F)cc2)c2cnn(C)c2n1 do in these assays?
TRPML1 blocker: -25; TRPML1 ag: 2.1

How did COc1cccc(-c2nc3c(c(C)nn3-c3ccccc3)c3cc(OC)c(OC)cc23)c1 do in these assays?
TRPML1 blocker: 6; TRPML1 ag: -0.2

What do the screens show for `O=C(CNC(=O)c1ccc(F)cc1)OCc1cc(=O)n2ccsc2n1`?
TRPML1 blocker: -4; TRPML1 ag: -0.2

What do the screens show for `CCS(=O)(=O)N1CC(=O)N(c2cc(C)cc(C)c2)C(C)(C(=O)NC2CCCCC2)C1` (stereo not given)?
TRPML1 blocker: -14; TRPML1 ag: 0.2

Results for Cc1cccc(Cn2cc3c(=O)n(CC(=O)Nc4c(C)cccc4C)nc-3c3cc(F)ccc32)c1 ?
TRPML1 blocker: -4; TRPML1 ag: 3.2

Results for Cc1cccc(NC(=O)CN2C(=O)COc3ccc(S(=O)(=O)N4CCC(C)CC4)cc32)c1C ?
TRPML1 blocker: 25; TRPML1 ag: 4.6

Results for CC(=O)c1ccc(NC(=O)Cn2c(=O)n(Cc3ccco3)c(=O)c3sc4ccccc4c32)cc1 ?
TRPML1 blocker: 47; TRPML1 ag: -0.3

What do the screens show for `COc1ccc(Cl)cc1NC(=O)Cn1cc(C(=O)c2ccncc2)c(=O)c2cc(C)ccc21`?
TRPML1 blocker: 3; TRPML1 ag: -0.4

What do the screens show for `COc1cccc(NC(=O)C(Cc2ccccc2)NS(=O)(=O)c2ccc3c(c2)c(=O)n(C)c(=O)n3C)c1` (stereo not given)?
TRPML1 blocker: -4; TRPML1 ag: -0.4

Results for Cc1ccc(CNC(=O)CN2C(=O)C3CCCCN3c3ccc(C(=O)N4CCCC4)cc32)cc1 (stereo not given) ?
TRPML1 blocker: -3; TRPML1 ag: -1.0

How did COc1ccc(CCNC(=O)c2cc3cccc4c3n2CC(C)S4)c(OC)c1OC (stereo not given) do in these assays?
TRPML1 blocker: 33; TRPML1 ag: 2.6

Results for CCOC(=O)c1c(C)[nH]c(C)c1S(=O)(=O)N(C)CC(=O)Nc1ccc(C)cc1C ?
TRPML1 blocker: -28; TRPML1 ag: -1.0

Results for Cc1ccc(C(c2sc3nc(-c4ccco4)nn3c2O)N2CCCCC2)cc1 (stereo not given) ?
TRPML1 blocker: -8; TRPML1 ag: 2.2

How did CCCCN(CCCC)C(=O)c1cc2c(=O)n3ccccc3nc2s1 do in these assays?
TRPML1 blocker: 13; TRPML1 ag: 0.0

Results for COc1ccc(NC(=O)c2ccc3nc(CCc4ccccc4)oc3c2)cc1 ?
TRPML1 blocker: -7; TRPML1 ag: 0.7

Results for COc1ccc(-c2cn3c(n2)sc2cc(C(=O)Nc4cccc(OC)c4)ccc23)cc1 ?
TRPML1 blocker: 38; TRPML1 ag: -0.4

Results for Cc1ccc(-c2nnc3ccccc3c2C(=O)Nc2ccc(F)cc2)cc1 ?
TRPML1 blocker: 18; TRPML1 ag: 0.5

What do the screens show for `CCOc1ccc(N2CC(c3nc4ccccc4n3CC(C)C)CC2=O)cc1` (stereo not given)?
TRPML1 blocker: 34; TRPML1 ag: 0.1

How did CCOc1ccc(NC(=O)CN(c2ccc(Cl)cc2C)S(=O)(=O)c2ccccc2)cc1 do in these assays?
TRPML1 blocker: 27; TRPML1 ag: 3.2

What do the screens show for `Cc1ccc(C(=O)Nc2cc3nn(-c4ccccc4)nc3cc2Cl)c(C)c1`?
TRPML1 blocker: -3; TRPML1 ag: -0.3

Results for Cn1c(SCC(=O)Nc2nc3ccccc3s2)ncc(C(=O)Nc2ccc(F)cc2)c1=O ?
TRPML1 blocker: 4; TRPML1 ag: 0.4

How did Cc1c(C(=O)OCCOc2ccccc2)[nH]c2c1C(=O)CC(c1ccccc1)C2 (stereo not given) do in these assays?
TRPML1 blocker: -1; TRPML1 ag: 1.1

Results for CNC(=O)C1CCC(Cn2c(=O)c3sccc3n(CC(=O)N3CCCCC3C)c2=O)CC1 (stereo not given) ?
TRPML1 blocker: -25; TRPML1 ag: 0.2

What do the screens show for `COc1ccc(CN2C(=O)C(NC(=O)c3ccccc3C)(C(F)(F)F)N=C2c2ccccc2)cc1` (stereo not given)?
TRPML1 blocker: 4; TRPML1 ag: -0.4

How did Oc1c(C(c2ccc(Cl)cc2)N2CCOCC2)sc2nc(-c3ccco3)nn12 (stereo not given) do in these assays?
TRPML1 blocker: -14; TRPML1 ag: 0.3

High-throughput results as filed in PubChem.
